Screening results: PubChem BioAssay, Sanford-Burnham Center for Chemical Genomics
MT1-MMP promoter: MT1-MMP gene expression reporter suppression – cell-based, luciferase reporter, luminescence (AID 618). MT1-MMP promoter luciferase reporter cells, luminescence. calls from a first round at 10 µM; hits with a dose series show EC50 in µM. actives 0.62% (n = 87,000);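 active = over half of the reporter light lost at 10 µM or EC50 under 50 µM; inactive = the rest and hits that failed the dose series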;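 also: actives suppress MT1-MMP promoter-driven transcription so potencies describe inhibitors; HT1080 fibrosarcoma cells; overnight exposure; toxic or luciferase-blocking compounds were not removed from the actives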
Starred values were filed as active, the others as inactive; i = inactive.

SMILES | MT1-MMP promoter
Cc1cc(C(=O)N[C@@H](c2ccccc2)[C@]2(C)C[C@H]2[C@@H](C)C(=O)Nc2ccc3ccccc3c2)no1 | i
Cc1ccc(C(=O)Nc2cccc(C(=O)N3CCN(C)CC3)c2)cc1 | i
CCOC(=O)c1ccc(-n2c(C)nc3c(cnn3-c3ccc(Cl)cc3)c2=O)cc1 | i
CCOc1ccc(NC(=O)CCn2c(=O)[nH]c3ccsc3c2=O)cc1 | i
Cc1ccc(-c2noc(CSc3nnc(-c4cccs4)n3C)n2)cc1 | i
N#Cc1ccc(C=NC(c2ccccc2)c2ccccc2)cc1 | i
CCCCN(CC)C(=O)Cc1cn(C)c2ccccc12 | i
CC(Cc1ccccc1)C(=O)N(C)Cc1ccccc1 (configuration not stated) | i
CC(C)=C1C(=O)C(c2ccccc2)=C2CN3C(=O)N(CCc4ccccc4)C(=O)[C@]3(Cc3ccccc3)[C@H]21 | i
Cc1ccc(NC(=O)CSc2nc3ccccc3c3nc(CCc4c(C)n[nH]c4C)nn23)cc1F | i
CCCN1Cc2cccc(C(=O)N3CCN(c4ccccc4)CC3)c2C1=O | i
O=C(NCCCN1CCc2ccccc2C1)Nc1ccc(Br)cc1 | i
CCOC(=O)C(C)Oc1c(Br)cc(C2NC(=O)NC(C)=C2C(C)=O)cc1OCC (configuration not stated) | i
COCc1nnc(NC(=O)CCSc2ccccc2)s1 | i
COC(=O)CCCCCN1C(=O)NC(c2ccc(-c3ccccc3)cc2)C(C(=O)OCc2ccccc2)=C1C (configuration not stated) | i
COc1cccc(CNC(=O)c2nnn(-c3ccc(OC(F)(F)F)cc3)c2N)c1 | i
COC(=O)c1ccc(C23CC4(C2)[C@H](CN(Cc2cccnc2)[C@@H]4c2ccccc2)C3c2ccccc2)cc1 (some centres not stated) | i
COc1ccc(Nc2nc(N3CCCCC3)nc3ccccc23)c(OC)c1 | i
CC(NC(=O)c1ccc(-c2cc(C(F)(F)F)ccc2Cl)o1)c1ccccc1 (configuration not stated) | i
OC(COCCC12CC3CC(CC(C3)C1)C2)CN1CCCCC1 (configuration not stated) | i
O=C(c1c(F)c(F)c(F)c(F)c1F)N(Cc1ccccc1)Cc1ccccc1 | i
C[C@H](CO)NC(=O)[C@H](C)[C@@H]1C[C@@]1(C)[C@@H](NC(=O)OCc1ccccc1)c1ccccc1 | i
CCOC(=O)N1CCC(NC(=O)C2CCN(C(=O)N3CC(C)Oc4ccccc43)CC2)CC1 (configuration not stated) | i
COC(=O)c1ccc(C(NC(=O)c2ccccc2)[C@]2(C)C[C@H]2C2CCCCC2)cc1 (some centres not stated) | i
N#Cc1ccc(C23CC4(C2)[C@H](CN(Cc2ccc(-c5ccccc5)cc2)[C@@H]4c2ccccc2)C3c2ccc(Cl)nc2)cc1 (some centres not stated) | i
Cn1cnc([N+](=O)[O-])c1NC(C)(C)C | i
COC(=O)[C@@]1(Cc2ccc(F)cc2)[C@H]2c3cc(C(=O)N(C)C)n(Cc4nc5ccccc5[nH]4)c3C[C@H]2CN1C(=O)c1ccccc1 | i
CCc1ccc(NC(=O)c2noc3c2CCc2ccccc2-3)cc1 | i
COc1cc2c(cc1NS(=O)(=O)N1CCCCC1)oc1ccccc12 | i
FC(F)(F)c1ccc(CN2C[C@@H]3C(c4ccccc4)C4(c5ccccc5)CC3(C4)[C@H]2c2ccccc2)cc1 (some centres not stated) | i
CC(C)NS(=O)(=O)c1ccc(NC(=O)CCc2ccccc2)cc1 | i
COc1ccc(N2CCN(CCNC(=O)Nc3ccc(Cl)cc3)CC2)cc1 | i
COc1ccc(N2CCN(CCCn3c(=S)[nH]c4ncccc4c3=O)CC2)cc1 | i
O=C(Nc1ccc(OC(F)F)cc1)Nc1cccc(C(F)(F)F)c1 | i
C=C(C)c1cccc(C(C)(C)NC(=O)N2CCN(C/C=C/c3ccccc3)CC2)c1 | i
COc1ccc2c(c1)CCc1c(C(=O)Nc3c(C)nn(Cc4ccccc4)c3C)noc1-2 | i
Cc1ccc(CNC(=O)c2ccc(C#CC(C)(C)O)s2)cc1 | i
O=C(NCNC(=O)c1ccccc1)c1ccccc1 | i
COc1ccc(C(=O)Nc2ccc(Cl)cc2C(=O)NCCN2CCOCC2)cc1 | i
COC(=O)c1ccc(C(NC(=O)OCc2ccccc2)/C(F)=C/[C@@H](C)C(=O)NCCc2c[nH]c3ccc(OC)cc23)cc1 (some centres not stated) | i
Cc1ccc(NC(=O)c2ccccc2N(C)S(C)(=O)=O)cc1C | i
Cc1nnc(NC(=O)c2cccc(Br)c2)s1 | i
Cc1ccc(NC(=O)Nc2sc(=S)n(C)c2C)cc1 | i
CNC(=O)C1CCC(=O)N1Cc1ccccc1Cl (configuration not stated) | i
O=C(CNC(=O)c1ccco1)NCC(=O)OCc1ccc(C(=O)Oc2ccc(Cl)cc2)cc1 | i
C[C@@H]1C=C[C@](Cc2ccccc2)(C(=O)NCC2CC2)N1C(=O)c1ccccc1 | i
O=C(Nc1ccc2c(c1)OCCO2)C(c1ccc(F)cc1)N1CCCCC1 (configuration not stated) | i
O=C1c2ccccc2C(=O)N1c1ccc(Cl)cn1 | i
COc1ccccc1OC(C)C(=O)Nc1nc(-c2ccc(S(=O)(=O)N3CCOCC3)cc2)cs1 (configuration not stated) | i
c1ccc(C2[C@H]3CN(Cc4cccnc4)[C@H](c4ccccc4)C34CC2(c2ccccc2)C4)cc1 (some centres not stated) | i
COC(=O)Cn1c(C(=O)N(C)C)cc2c1C[C@H]1CN(C(=O)c3ccccc3)[C@@](Cc3ccc(F)cc3)(C(=O)OC)[C@@H]21 | i
COC(=O)c1ccc(C23CC4(C2)[C@H](CN(CC2CCCCC2)[C@@H]4c2ccccc2)C3c2ccc(C(F)(F)F)cc2)cc1 (some centres not stated) | i
CCOc1ccc(NC(=O)CNC(=O)c2cn(-c3ccccc3OC)c(=O)c3ccccc23)cc1 | i
CC1(C)N=C(SCC(=O)Nc2ccc(Cl)cc2)C(c2ccccc2)=N1 | i
C=C(C)CSc1nnc2n(Cc3ccccc3)c(=O)c3c4c(sc3n12)CCC4 | i
CCC1=C2CC[C@H]3C(=O)N(c4ccccc4)C(=O)[C@H]3[C@H]2[C@@]2(Cc3ccccc3)C(=NCCc3c[nH]c4ccccc34)OC(=O)N2C1=O | i
CCOC(=O)n1c(=O)oc2ccccc21 | i
CCC/C=C(\CCC)C(NC(=O)c1ccc(-c2ccccc2)cc1)c1ccc(C(=O)OC)cc1 (configuration not stated) | i
CCOC(=O)N1CCC(Nc2c(NCCCN3CCN(CC)CC3)c(=O)c2=O)CC1 | i
CC(=O)N1CCN(S(=O)(=O)c2ccccc2)C1c1ccccc1 (configuration not stated) | i

A second format for some results above.
Structure	MT1-MMP promoter
COc1ccccc1OC(C)C(=O)Nc1nc(-c2ccc(S(=O)(=O)N3CCOCC3)cc2)cs1 (configuration not stated)	i
c1ccc(C2[C@H]3CN(Cc4cccnc4)[C@H](c4ccccc4)C34CC2(c2ccccc2)C4)cc1 (some centres not stated)	i
COC(=O)Cn1c(C(=O)N(C)C)cc2c1C[C@H]1CN(C(=O)c3ccccc3)[C@@](Cc3ccc(F)cc3)(C(=O)OC)[C@@H]21	i
COC(=O)c1ccc(C23CC4(C2)[C@H](CN(CC2CCCCC2)[C@@H]4c2ccccc2)C3c2ccc(C(F)(F)F)cc2)cc1 (some centres not stated)	i
CCOc1ccc(NC(=O)CNC(=O)c2cn(-c3ccccc3OC)c(=O)c3ccccc23)cc1	i
CC1(C)N=C(SCC(=O)Nc2ccc(Cl)cc2)C(c2ccccc2)=N1	i

Going on with the list:
SMILES | MT1-MMP promoter
COc1ccccc1Nc1ncccc1C(=O)NCc1ccccc1 | i
CC(C)CC1(C(=O)NCc2ccccn2)C=CCN1C(=O)c1ccccc1 (configuration not stated) | i
CC(=O)NCCn1c(SCC(=O)NCCC(C)C)nc2ccccc2c1=O | i
CC(=O)N1CC=CC1(CC(C)C)C(=O)NCc1cc(F)cc(C(F)(F)F)c1 (configuration not stated) | i
CCOC(=O)c1c(NC(=O)c2cccnc2)sc(C)c1C | i
COc1ccc(CC(=O)NNC(=S)Nc2ccc(Br)cc2)cc1 | i
Cc1ccc(NC(=O)C2COc3ccccc3O2)nc1 (configuration not stated) | i
COC(=O)[C@H]1C[C@@H]1[C@H](NC(=O)[C@@H]1CCCN1C(=O)OC(C)(C)C)c1ccccc1 | i
O=C(NCc1ccccn1)[C@H]1C[C@@H]1[C@H](NP(=O)(c1ccccc1)c1ccccc1)c1ccccc1 | i
CN(C)/C=N/c1cc(=O)[nH]c(=O)n1CC1CC1 | i
Cc1ccc(C2C3=C(NCCN=C3c3ccccc3)C(=O)N2c2ccccc2)cc1 (configuration not stated) | i
CC1(C)CC(=O)c2cc3c(N)c(C(=O)NCc4ccccc4)sc3nc2C1 | i
CC(C)CN(CC(C)C)C(=O)CC(=O)NC(=O)c1ccc(Cl)cc1 | i
CCSc1ccc(NC(=O)c2cccnc2)cc1 | i
CCC1=C2CC[C@H]3C(=O)N(CC(=O)OC)C(=O)[C@H]3[C@H]2[C@@]2(C)C(=NCC(=O)OC)OC(=O)N2C1=O | i
O=C(CCSc1ccccc1)Nc1nc2c(s1)CCCC2 | i
COCCNC(=O)c1cc(-c2cccnc2)nc2ccc(Br)cc12 | i
CC(NC(=O)Cn1c(=O)[nH]c2ccsc2c1=O)C12CC3CC(CC(C3)C1)C2 (configuration not stated) | i
COc1ccc(N(CC(=O)NCCC2=CCCCC2)S(C)(=O)=O)cc1 | i
CCCN1CCN(CCCNC(=O)CCNC(=O)Cn2ccc3ccccc3c2=O)CC1 | i
COc1ccc(-c2n[nH]c(C)c2-c2cnn(-c3ccccc3)c2)c(O)c1C | i
C=CCNC(=S)NNC(=O)c1ccc(OC(C)C)cc1 | i
CCOC(=O)C1=C(CCc2ccccc2)NC(=O)NC1c1ccc2ccccc2c1 (configuration not stated) | i
Cc1ccsc1/C=C1\CCc2ccccc2C1=O | 3.1µM*
COc1ccc(C(C)=O)c(OC(=O)c2ccco2)c1 | i
CCCC(=O)c1cc2c(cc1NC(=O)c1cccs1)OCCO2 | i
CCCN1Cc2cccc(C(=O)Nc3ccc(C)cc3)c2C1=O | i
O=C(CCC1CCCC1)NC1CCCCC1 | i
C=CCN(N=Nc1cccc([N+](=O)[O-])c1)c1cccc([N+](=O)[O-])c1 | i
Cc1nnc(SCc2c(Cl)cccc2Cl)s1 | i
O=C(Nc1ccon1)c1ccccc1F | i
COc1ccc(CCCc2nnc(SCC(=O)Nc3cc(C)ccc3C)o2)cc1 | i
Cc1ccc(NC(=O)c2cc3nc(C)cc(C)n3n2)cc1 | i
COC(=O)c1cccc(C23CC4(C2)[C@H](CN(Cc2cccnc2)[C@@H]4c2ccccc2)C3c2ccc(Cl)nc2)c1 (some centres not stated) | i
CCCC1(C(=O)OC)C=C2C(=C(C)C(=O)C2C)CN1 (configuration not stated) | i
COc1cc(=O)n(C)c2ccccc12 | i
COc1ccc(C(=O)c2ccc(OC)c(OC)c2)cc1 | i
COc1cccc(C2NC(=O)N(CCCC(=O)O)C(C)=C2C(=O)OCc2ccccc2)c1 (configuration not stated) | i
CC(CC(=O)Nc1nc2ccccc2[nH]1)c1ccccc1 (configuration not stated) | i
CC(=O)N1CCc2cc(S(=O)(=O)CCC(=O)N3CCc4ccccc4C3)ccc21 | i
Cn1c(CC(=O)Nc2ccc(Cl)c(Cl)c2)nnc1SCC(=O)N1CCN(c2ccccc2)CC1 | i
CCOc1ccccc1CNC(=O)c1cc2oc3ccccc3c2n1CC | i
CCC/C=C(\CCC)C(NS(=O)(=O)c1ccc(C(F)(F)F)cc1)c1ccccc1 (configuration not stated) | i
COCCN=C1OC(=O)N2C(=O)C3=C4[C@@H](C[C@H]5C(=O)N(CC(=O)OC)C(=O)[C@H]5[C@H]4[C@@]12Cc1ccccc1)[C@H]1C(=O)N(CC(=O)OC)C(=O)[C@H]1[C@H]3C | i
Cc1ccc(NC(=O)/C(=C/c2ccco2)c2ccccc2)c(C)c1 | i

Given in CSV form: entries from further up
smiles,MT1-MMP promoter
C[C@H](CO)NC(=O)[C@H](C)[C@@H]1C[C@@]1(C)[C@@H](NC(=O)OCc1ccccc1)c1ccccc1,i
CCC1=C2CC[C@H]3C(=O)N(c4ccccc4)C(=O)[C@H]3[C@H]2[C@@]2(Cc3ccccc3)C(=NCCc3c[nH]c4ccccc34)OC(=O)N2C1=O,i
CC(NC(=O)c1ccc(-c2cc(C(F)(F)F)ccc2Cl)o1)c1ccccc1 (configuration not stated),i
COC(=O)c1ccc(C23CC4(C2)[C@H](CN(Cc2cccnc2)[C@@H]4c2ccccc2)C3c2ccccc2)cc1 (some centres not stated),i
OC(COCCC12CC3CC(CC(C3)C1)C2)CN1CCCCC1 (configuration not stated),i

The results go on.
SMILES | MT1-MMP promoter
O=C(c1ccc([N+](=O)[O-])cc1)N(Cc1ccc(Cl)cc1)N1C(=O)CCCC1=O | i
CCOC(=O)c1cccc(NC(=O)CCS(=O)(=O)c2ccc(Br)s2)c1 | i
Nc1nnc(SCC(=O)N2CCN(Cc3ccccc3)CC2)s1 | i
CCN(CC)C(=O)CSCc1cnn(-c2ccccc2)c1-n1cccc1 | i
COC(=O)c1ccc(C(/C=C/[C@@H](C)C(=O)NCc2ccc(OC)c(O)c2)NC(=O)OCc2ccccc2)cc1 (some centres not stated) | i
COc1cc(C(=O)O/N=C2\CCCc3c2ccc(OC)c3[N+](=O)[O-])cc(OC)c1OC | i
Cc1cc(-c2ccc(Cl)s2)n[nH]1 | i

A portion of the library, so the mix of outcomes need not match the whole.
